# Choline anaer gr = inhibitors of anaerobic choline-dependent gram-negative bacterial growth. actives 0.2% (n = 55,000). calls only. Gram-negative bacterium anaerobic choline minimal medium, absorbance growth; active compounds read low; many inactives read as strong as hits in the columns shown;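 active = growth z-score on choline under -2 at 7 or 20 h with little or no fall on glycerol, limits in tiers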;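 note: stock transfer was 300 nL into about 50 µL; the organism is E. coli; final concentration not given here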
# Choline anaer gr early = recorded beside Choline anaer gr, whose call it bears; z-score; measured here: choline growth z-score, timepoint 1;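 score of optical density at 7 h as mean of two plates; lower means less growth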
# * marks the source's active call; other numbers are inactive results; i = inactive; + = active, no number. An excerpt; count on the stated rates, not on these rows.
# Values run as follows: Choline anaer gr, Choline anaer gr early
> O=C(NCCCCCNC(=O)c1cccnc1)c1cccnc1
  i, 0.89
> CCOC(=O)c1ccc(NC(=O)c2sc(=S)n3c2[nH]c(=O)c2cc(Cl)ccc23)cc1
  i, -0.68
> CCc1nnc(NC(=O)Nc2ccccc2Cl)s1
  i, -0.78
> Cc1cccc(Cn2c(C)c(CNCCc3ccc(S(N)(=O)=O)cc3)c(C(=O)O)c2C)c1
  i, 0.67
> c1ccc(CCNc2c3c(nc4nncn24)CCC3)cc1
  i, 0.78
> Cc1ccc(C(=O)NC(C)c2ccccc2)cc1-n1nnc2cccnc21 (stereo not given)
  i, -1.1
> O=C(O)c1ccc(N2C(=O)c3[nH]nc(-c4ccccc4)c3C2c2ccccc2)cc1 (stereo not given)
  i, -1.4
> COc1cc(OC)c(NC(=O)Cn2nnc(C(=O)O)c2C(=O)O)cc1Cl
  i, -0.4
> COc1ccc(C(CC(=O)O)N2Cc3ccccc3C2=O)cc1OC (stereo not given)
  i, -2.4
> Cc1cc(C)cc(NC(=O)Cn2cccc2)c1
  i, -2.2
> O=c1ccc(-c2ccccc2)nn1CCc1nc(-c2ccc(F)cc2)no1
  i, 0.48
> Cc1ccc(CNC(=O)CCCN2C(=O)c3cccnc3Oc3ccc(Cl)cc32)cc1
  i, -1.4
> CC(C)C(=O)Nc1ccc2nc(SCCOc3ccccc3)sc2c1
  i, 1.3
> COc1cc(NS(C)(=O)=O)ccc1Nc1c2ccccc2nc2ccccc12
  i, -0.88
> Cc1cc(C)c2c(-n3cccc3)nn(Cc3ccc(C(=O)NCCC(C)C)cc3)c2n1
  i, 1.5
> O=C(NCCn1c(-c2ccccc2)nc2cccnc21)c1ccccc1F
  i, -0.58
> Cn1cc(CCC(=O)NC2CCN(Cc3ccccc3)CC2)c2ccccc21
  i, 0.36
> COc1ccc(Nc2cc(-n3nc(C)cc3C)ncn2)cc1
  i, -0.04
> Cc1nc2cc(-c3noc(-c4ccc(F)c(F)c4)n3)ccc2o1
  i, -0.58
> Cc1cccc(N2CCN(C(=O)c3ccc4cn[nH]c4c3)CC2)c1C
  i, -0.23

# 5 entries drawn at random from those above:
# Values run as follows: Choline anaer gr, Choline anaer gr early
> Cc1cccc(Cn2c(C)c(CNCCc3ccc(S(N)(=O)=O)cc3)c(C(=O)O)c2C)c1
  i, 0.67
> O=c1ccc(-c2ccccc2)nn1CCc1nc(-c2ccc(F)cc2)no1
  i, 0.48
> COc1ccc(C(CC(=O)O)N2Cc3ccccc3C2=O)cc1OC (stereo not given)
  i, -2.4
> COc1cc(NS(C)(=O)=O)ccc1Nc1c2ccccc2nc2ccccc12
  i, -0.88
> O=C(O)c1ccc(N2C(=O)c3[nH]nc(-c4ccccc4)c3C2c2ccccc2)cc1 (stereo not given)
  i, -1.4

# Looked up above:
# c1ccc(CCNc2c3c(nc4nncn24)CCC3)cc1 @ Choline anaer gr early: 0.78
# CCc1nnc(NC(=O)Nc2ccccc2Cl)s1 @ Choline anaer gr early: -0.78
# O=c1ccc(-c2ccccc2)nn1CCc1nc(-c2ccc(F)cc2)no1 @ Choline anaer gr early: 0.48

# Next part.
# Values run as follows: Choline anaer gr, Choline anaer gr early
> Cc1ccccc1NC(=O)CC1C(=O)NCCN1C(=O)c1ccc(F)cc1 (stereo not given)
  i, 0.2
> CCOC(=O)c1c(C)c(S(=O)(=O)NC(C)CC)c(C)n1C (stereo not given)
  i, -0.88
> Cc1oc(-c2ccccc2)nc1Cn1nnc(-c2nc(-c3ccc4c(c3)OCO4)no2)c1C
  i, -0.34
> O=c1ccc(-c2ccc3c(c2)OCO3)nn1CCc1nc(-c2cccc(Br)c2)no1
  i, 1.1
> CCOc1ccc(NC(=O)Nc2cc3c(cc2Oc2ccccc2)n(C)c(=O)n3C)cc1
  i, 0.51
> O=C(Cn1cnc2c(sc3ncccc32)c1=O)NC1CCCCC1
  i, -1.5
> CCN(CC)CCNc1cc(C(C)(C)C)nc2c(-c3ccc(F)cc3)c(C)nn12
  i, 1.3
> O=S(=O)(c1cc(F)ccc1F)N1CCN=C1N1CCN(c2ccc(F)cc2)CC1
  i, 0
> O=S(=O)(NC1CCCCC1)c1ccc(-c2nnc(C3CCC3)o2)o1
  i, 0
> Cc1ccc(-c2csc3c2ncn2c(=O)n(CC(=O)Nc4ccc5c(c4)OCCO5)nc32)cc1
  i, 0.13
> CN1c2cc3c(cc2N=C(c2ccc(C(=O)O)cc2)c2ccccc21)C(C)(C)CCC3(C)C
  i, 0.33
> O=C(CN1CCN(Cc2ccccc2)C(=O)C1=O)NCCCc1ccccc1
  i, -0.98
> COc1ccc(Cl)cc1S(=O)(=O)Nc1cccc(-c2ccc(N3CCCCC3)nn2)c1
  i, 0.19
> CN(CC(=O)N1CCCC1)c1nc(C2CC2)nc2c1CCC2
  i, -0.34
> Cc1ccc2nc(NC(=O)C(C)NS(=O)(=O)c3cc(-c4noc(C5CC5)n4)ccc3C)sc2c1 (stereo not given)
  i, 0.59
> COc1cccc(N2CCN(C(=O)c3cccn4c(=O)c5ccccc5nc34)CC2)c1
  i, 1.6
> CCSc1nnc(-c2nn(C)c3c2CN(S(=O)(=O)c2cccc(Cl)c2)CC3)n1CC
  i, 0.51
> CCN(CC)S(=O)(=O)c1ccc2c(c1)ncn2CCC(=O)NC1CCN(Cc2ccccc2)CC1
  i, 0.03
> Cc1nc2nc(NCc3ccccc3)[nH]n2c(=O)c1CCC(=O)Nc1nccs1
  i, 0.76
> CC(C)c1cc(C2CCCN2C(=O)NC2CCCCC2)on1 (stereo not given)
  i, 0.32

# Next section.
# Values run as follows: Choline anaer gr, Choline anaer gr early
> O=c1[nH]c2cc3c(cc2c(=O)n1Cc1nc(-c2cccnc2)no1)OCO3
  i, 2.1
> COc1ccc(-c2cc3c(SCC(C)C)nccn3n2)cc1
  i, -0.69
> Cc1cccc(-n2c(C)cc(CNC(=O)NCC3CCCO3)c2C)c1 (stereo not given)
  i, -2.2
> CNC(=O)c1ccc(-c2nc3cc(NS(=O)(=O)c4ccc(C)cc4C)ccc3n2C)cc1
  i, 0.39
> C=Cc1ccc(Cn2nc3c(S(=O)(=O)N4CCc5ccccc5C4)cccn3c2=O)cc1
  i, 1.4
> CCOCCn1c(C2CCCN2C(C)=O)nc2ccccc21 (stereo not given)
  i, 0.96
> Cc1nnc(-c2ccc(S(=O)(=O)NCc3ccco3)o2)o1
  i, 0.6
> Cc1[nH]c(C)c(S(=O)(=O)N2CCC(C(=O)Nc3ccc(F)cc3)CC2)c1C(=O)N1CCCC1
  +, -0.66*
> CCOC(=O)c1cc(NC(=O)c2ccc(C(C)(C)C)cc2)c(=O)n2c1oc1cc(Cl)ccc12
  i, 0.01
> Cc1ccc(NC(=O)N2CCCN(c3ccc(=O)n(-c4ccc(F)cc4)n3)CC2)c(Cl)c1
  i, 0.95
> COc1ccc(NC(=O)CN2C(=O)C3CCCCN3c3ccc(C(=O)N4CCCC4)cc32)cc1 (stereo not given)
  i, 0.88
> O=c1n(Cc2ccc3c(c2)OCO3)nc2c(S(=O)(=O)N3CCc4ccccc4C3)cccn12
  i, 0.81
> CCOC(=O)c1c(NC(=O)N2CCOc3ccc(C)cc32)sc2c1CCCC2
  i, -0.39
> CCCn1c(=O)c2ccccc2n2c(=O)n(CC(=O)Nc3ccc(OC)cc3)nc12
  i, -0.74
> Cc1ccc(Cl)cc1NC(=O)C(Cc1ccccc1)NS(=O)(=O)c1cccc2cccnc12 (stereo not given)
  i, 1.9
> Cc1oc(-c2ccccc2)nc1CSc1nc(-c2cccnc2)cc(=O)[nH]1
  i, -1.3
> CCN1CCN(C(=O)C2CCCN(S(=O)(=O)c3cn(C(C)C)cn3)C2)CC1 (stereo not given)
  i, -0.03
> CCc1nnc2c(Oc3ccccc3)nc3ccccc3n12
  i, 0.41
> c1nc2c(c(NC3CCN(Cc4ccoc4)CC3)n1)CCC2
  i, -1.2
> Cc1cc2c(cc1S(=O)(=O)N1CCCC(C(=O)NC3CCCC3)C1)OCC(=O)N2 (stereo not given)
  i, 0.38

# Other compounds follow:
# Values run as follows: Choline anaer gr, Choline anaer gr early
> COc1ccc(Cl)cc1NC(=O)COc1cccc2ccc(N3CCC(C(N)=O)CC3)nc12
  i, 0.85
> O=C1CCSc2c1cccc2C(=O)N1CCN(c2ccccn2)CC1
  i, -0.6
> CC(C)Cc1cc(-c2nn3c(-c4ccncc4)nnc3s2)n[nH]1
  i, 1.4
> COc1ccc2nc(-n3nc(C)c4c3NC(=O)CC4c3ccc(OC)c(Br)c3)sc2c1 (stereo not given)
  i, 0.53
> CN(Cc1ccccc1)S(=O)(=O)c1ccc2c(c1)CCN2C(=O)CCC(=O)N1CCCC1
  i, -0.08
> CCc1ccc(-c2ccc(=O)n(CCc3nc(-c4ccc(F)cc4)no3)n2)cc1
  i, 0.99
> COc1cccc(C2CC(=O)Nc3c2c(C)nn3-c2ccc3nncn3n2)c1OCc1cccc(C)c1 (stereo not given)
  i, 0.28
> CCOC(=O)C1CCCN(c2c(N3CCN(c4ccccn4)CC3)c(=O)c2=O)C1 (stereo not given)
  i, -0.82
> CC(=O)Nc1ccc(-n2cc3c(c2-c2ccc(C)cc2)c(=O)n(C)c(=O)n3C)cc1
  i, 0.05
> COc1ccc(CNC(=O)c2ccc(C3SCC(=O)N3CCc3ccccc3)cc2)cc1 (stereo not given)
  i, 0.61
> O=C(NC1CCCc2ccccc21)c1ccc(-c2ccc(F)cc2)nc1 (stereo not given)
  i, -0.88
> COc1ccc(OC)c(S(=O)(=O)Nc2cnc(N3CCCC3)c(C(=O)O)c2)c1
  i, 0.23
> O=C(Nc1ccccc1)Nc1nc(CC(=O)N2CCCC2)cs1
  i, -1
> O=C(Nc1cccc(Cl)c1)N1CCN(c2nc3ccccc3n(Cc3ccccc3)c2=O)CC1
  i, -0.1
> CCCS(=O)(=O)N1CCOc2ccc(COCc3ccccc3)cc2C1
  i, -0.73
> O=c1c(-c2nc(-c3ccccc3F)no2)c[nH]c2ccccc12
  i, -0.67
> C=CCSc1c(CCCC)cnc2c1c(=O)n(C)c(=O)n2C
  i, 0.41
> Cc1cccc(NC(=O)CN2C(=O)CC(c3ccccc3)=Nc3ccccc32)c1C
  i, 0.51
> O=C(Nc1ccc2c(c1)OCCO2)N1CCc2c([nH]c3ccccc23)C1c1ccc(F)cc1 (stereo not given)
  i, 0.24
> CCCCSc1cc2c(cc1NS(C)(=O)=O)n(C)c(=O)n2C
  i, -0.87

# (next part)
# Values run as follows: Choline anaer gr, Choline anaer gr early
> Nc1nc(SCCC(=O)O)n[nH]1
  i, 0.42
> Cn1c(=O)n(Cc2ccc(F)cc2)c(=O)c2cnc(-c3cccnc3)nc21
  i, 0.6
> O=C(NCc1cccnc1)c1c(-c2ccc(Cl)cc2)nc2n1CCS2(=O)=O
  i, -0.17
> CC1=C(/C=C/C(C)=C/C=C/C(C)=C/C=C/C=C(C)/C=C/C=C(C)/C=C/C2=C(C)C(=O)CCC2(C)C)C(C)(C)CCC1=O
  i, 0.89
> COc1ccc(C2C3=C(CC(c4ccc(Cl)cc4)CC3=O)Nc3onc(C)c32)cc1OC (stereo not given)
  i, -0.06
> Cc1oc(C2CCN(C(=O)NC3CCCC3)CC2)nc1C(=O)N1CCCC1
  i, -1.5
> Cc1[nH]nc(-c2cc(S(=O)(=O)NCC(C)c3ccccc3)c(C)s2)c1C (stereo not given)
  i, -0.53
> CNC(=O)N(C)Cc1ccc(C)s1
  i, -0.76
> CCOC(=O)c1c(S(=O)(=O)N2CCC(C(=O)N3CCc4ccccc4C3)CC2)c(C)n(C)c1C
  i, -0.59
> CCC(=O)N1CCc2cc(Br)c(S(=O)(=O)NCCN3CCN(c4ccccc4)CC3)cc21
  i, -1.2
> COc1ccc2c(c1)c(C(=O)N1CCN(c3ccccc3)CC1)c(C)n2-c1ccccc1
  i, 0.44
> CCOc1ccc(C(=O)NCCc2sc3nc(-c4ccc(C)cc4)nn3c2C)cc1OCC
  i, 0.95
> O=C(CCN(C(=O)c1ccc(Br)cc1)C1CCCC1)N1CCNCC1
  i, 0.35
> Cc1cc(C)cc(NC(=O)N2CC3CCCN3c3ccccc32)c1 (stereo not given)
  i, 0.61
> CCCOC1CCN(C(C)=O)CC1
  i, 0.41
> Cc1ccc(S(=O)(=O)NCCc2sc(-c3ccc(F)cc3)nc2C)cc1C
  i, -0.02
> Fc1ccc(-c2csc(Cc3nc(-c4ccc(Cl)cc4)no3)n2)cc1
  i, 0.88
> C=CCN(Cc1nc(-c2ccc(C)cc2)no1)C(=O)Nc1ccc(C)cc1
  i, 1.7
> O=C(c1cccc(F)c1)N1CCN(Cc2cc(=O)n3nc(-c4ccc(F)cc4)sc3n2)CC1
  i, -0.31
> COc1ccc(-c2nc3c4cnn(-c5ccccc5)c4ncn3n2)cc1OC
  i, 3

# More records follow.
# Values run as follows: Choline anaer gr, Choline anaer gr early
> COc1ccc(Br)cc1CNC(=O)C1CCN(c2ccc(Cl)cc2)C1=O (stereo not given)
  i, 0.36
> Cc1nc2ccccc2c(=O)n1Cc1noc(C2CCCO2)n1 (stereo not given)
  i, -0.97
> CCCn1c(=O)c2sccc2n2c(SCc3ccc(F)cc3)nnc12
  i, 0.86
> Cc1ccc(S(=O)(=O)N(CCOc2ccccc2)c2nc3nc(C)cc(C)n3n2)cc1
  i, -0.1
> COc1cc2c(cc1OC)CN(C(=O)c1ccc(N3C(=O)C(C)CS3(=O)=O)cc1Cl)CC2 (stereo not given)
  i, -0.88
> O=C(c1ccc(-c2noc(C3CC3)n2)cc1)N1CCc2ccccc21
  i, -0.48
> Cc1ccc2cc(-c3noc(CCC(=O)Nc4nnc(CC(C)C)s4)n3)c(=O)[nH]c2c1
  i, 0.22
> COc1ccccc1C(=O)Nc1cc2c(cc1SC(C)C)n(C)c(=O)n2C
  i, -1.1
> Cc1ccc2c(c1)N(C(=O)CCC(=O)NCCc1ccc(S(N)(=O)=O)cc1)CCO2
  i, -0.08
> O=S(=O)(Cc1nc(-c2ccc(Br)cc2)no1)c1ccccc1
  i, 0.17
> CNC(=O)N1CCCN(c2nc3cc(Br)ccc3n3cccc23)CC1
  i, -0.36
> O=C(Nc1ccc(Br)cc1F)c1sc(=S)n2c1[nH]c(=O)c1cc(Cl)ccc12
  i, 0.09
> CCCNC(=O)Nc1cccc(-c2noc(-c3cnccn3)n2)c1
  i, -0.48

# Compound activity deposited in PubChem BioAssay by ICCB-Longwood Screening Facility, Harvard Medical School.
